Source: PubChem BioAssay
FGF22 binding = binders of recombinant human FGF22 by thermal shift. Q9HCT0. SYPRO orange fluorescence; percent of sucrose octasulfate shift, DMSO zero. calls only at 9.99 µM. actives 1.5% (n = 340,000). AID 651658;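 active = melting point raised past a set limit in the mean and every replicate; inconclusive = no clear call; three in four hits are not shown here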
Target sequence (Q9HCT0 whole entry, looked up): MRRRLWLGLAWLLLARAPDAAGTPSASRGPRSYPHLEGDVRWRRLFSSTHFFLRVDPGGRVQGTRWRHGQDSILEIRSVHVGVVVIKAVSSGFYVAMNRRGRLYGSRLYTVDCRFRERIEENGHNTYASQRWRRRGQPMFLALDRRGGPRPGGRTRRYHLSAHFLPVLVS
rRNA inh HTS = inhibitors of bacterial rRNA selective over humanized ribosomes | AID 720706 | E. coli WT GFP vs humanized-ribosome RFP mutants, fluorescence, 24 h; stronger effect = lower value; DMSO median 0, no signal -100 | GFP signal change (wild-type ribosome), % (test concentration not listed) | actives 1.6% (n = 350,000);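 active = significant combined selectivity score with lowered wild-type GFP, culture density cut under 30%, mutant RFP and density less affected; inactive = any of these conditions unmet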; also: one replicate is shown; some compounds called inactive have numbers as strong as hits
AF4-AF9 inh = MLL-AF4/AF9 protein interaction inhibition | P42568 | AlphaScreen, biotin-AF4 peptide binding to FLAG-AF9 | inhibition, % at 10 µM | actives 0.47% (n = 350,000);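 active = every replicate reaching a set inhibition limit, whatever the replicate mean, cut at about 25% in these data; inconclusive = mean inhibition reaches that limit but some replicates miss it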;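 also: 0% = plate neutral control median and 100% = total signal loss; the record names both 10 and 1 µM as test concentration; the first replicate is given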
Target sequence (P42568 whole entry, looked up): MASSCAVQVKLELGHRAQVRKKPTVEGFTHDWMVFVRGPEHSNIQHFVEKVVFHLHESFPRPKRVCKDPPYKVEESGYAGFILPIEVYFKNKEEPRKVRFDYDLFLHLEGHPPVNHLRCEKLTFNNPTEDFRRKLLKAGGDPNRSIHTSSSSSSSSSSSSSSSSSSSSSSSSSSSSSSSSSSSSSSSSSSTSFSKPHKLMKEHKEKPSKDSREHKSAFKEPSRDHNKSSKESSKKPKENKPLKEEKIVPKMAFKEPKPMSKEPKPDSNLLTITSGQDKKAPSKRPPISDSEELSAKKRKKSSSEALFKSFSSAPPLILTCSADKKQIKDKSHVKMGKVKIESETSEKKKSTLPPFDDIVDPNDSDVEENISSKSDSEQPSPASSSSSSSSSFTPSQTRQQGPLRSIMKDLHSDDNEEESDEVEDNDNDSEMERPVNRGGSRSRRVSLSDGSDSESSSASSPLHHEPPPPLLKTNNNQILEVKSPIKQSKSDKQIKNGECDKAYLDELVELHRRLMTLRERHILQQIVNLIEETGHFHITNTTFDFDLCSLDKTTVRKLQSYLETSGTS
HNF4A DNA FP = change in binding of human HNF4 alpha to DNA; HNF4a-FITC DNA binding, fluorescence polarization, 1 h; activity change, % at 10 µM; actives 0.3% (n = 360,000); in the data active = activity change above about 30%, passing the limit was not always enough;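 also: controls were the assay level and a saturating level of protein; the project sought stronger binding though the title names inhibitors; some compounds called inactive have numbers as strong as hits; positive values seem to mean higher polarization but the record does not say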
ALR H2O2 inh = inhibitors of human sulfhydryl oxidase ALR. inhibition, % (concentration not given with the values). P55789. purified ALR, DTT oxidation, H2O2 HRP-luminol luminescence. AID 485317. actives 3.8% (n = 290,000);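 active = mean and each replicate at 75% or more; inconclusive = only one of the two met; inactive = neither met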;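 also: stock transfer was 7.5 nL into about 7.5 µL; 0% = neutral wells and 100% = wells with inactivated enzyme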
Target sequence (P55789 whole entry, looked up): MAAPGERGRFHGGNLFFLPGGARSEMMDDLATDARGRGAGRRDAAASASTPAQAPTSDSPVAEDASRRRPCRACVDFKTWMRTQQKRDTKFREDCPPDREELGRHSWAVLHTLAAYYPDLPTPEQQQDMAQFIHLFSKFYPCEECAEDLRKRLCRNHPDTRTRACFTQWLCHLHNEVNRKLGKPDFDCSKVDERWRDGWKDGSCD
Vif A3G = HIV-1 Vif–A3G interaction blockers – biochemical, TR-FRET, GST-Vif 1-94, biotin-A3G peptide, dose response retest, primary screen (AID 1117319); TR-FRET GST-Vif / biotin-A3G peptide binding; higher % means a stronger effect; test concentration not given here; strong numbers were not always called active; inhibition, %, or IC50 in µM where a hit was titrated; actives 0.57% (n = 260,000);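 active = above the screen mean plus three standard deviations and confirmed in dose response; inconclusive = results disagree or hit not tested in dose response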;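 also: Vif residues 1-94 fused to GST binding biotinylated APOBEC3G peptide 110-148; 0% = full assay without inhibitor and 100% = GST in place of GST-Vif; retest series ran down from 100 µM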
E coli growth = blocks Escherichia coli growth; OD600, 23 h; stronger effect = lower value; OD600 absorbance (no concentration beside the values); actives 0.21% (n = 330,000); AID 1053175;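 active = OD600 absorbance below the run mean of sample wells minus 3.6 SD, in any replicate, cut at about 0.56 in these data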;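 also: stock transfer was 300 nL into about 60 µL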
rRNA inh HTS OD600 = further read-out of rRNA inh HTS, marked with its call; OD600 change, %; measured here: OD600 growth;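 optical density of the mix in the first replicate; 0 = DMSO median and -100 = no signal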
rRNA inh HTS RFP = recorded beside rRNA inh HTS, whose call it bears; RFP signal change, %; measured here: RFP humanized mutant strains;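 first replicate; 0 = DMSO median and -100 = no signal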
* hit, by the source's call; & = joins results of further samples. The list is partial. The share of hits here may be higher or lower than overall.

How did COCCNC(=O)C1CCN(S(=O)(=O)N2CCC3(CC2)OCCO3)CC1 do in these assays?
HNF4A DNA FP: 0.8; ALR H2O2 inh: -4; Vif A3G: 1%; E coli growth: 0.67

What do the screens show for `O=C1c2ccc([N+](=O)[O-])cc2C(=O)N1c1c[nH]c(=O)[nH]c1=O`?
FGF22 binding: inactive; rRNA inh HTS: -2; AF4-AF9 inh: -7.4; HNF4A DNA FP: 5.4; ALR H2O2 inh: -21; Vif A3G: 3%; E coli growth: 0.69; rRNA inh HTS OD600: 3; rRNA inh HTS RFP: 0.3

Results for O=C1c2ccccc2CC1Sc1nnc(-c2ccccn2)o1 (centres undefined) ?
HNF4A DNA FP: -0.6; Vif A3G: 98µM*; E coli growth: 0.69

What do the screens show for `O=C(NCc1cccnc1)C(=O)Nc1ccc2c(c1)OCO2`?
FGF22 binding: inactive; rRNA inh HTS: 13; AF4-AF9 inh: -2.8; HNF4A DNA FP: -1.4; ALR H2O2 inh: 0; Vif A3G: -1%; E coli growth: 0.68; rRNA inh HTS OD600: 5; rRNA inh HTS RFP: 2.2

What do the screens show for `CNC(=O)C1CCC(=O)N1Cc1ccc(C)cc1` (centres undefined)?
HNF4A DNA FP: 5.3; ALR H2O2 inh: -4; Vif A3G: -1%; E coli growth: 0.68

What do the screens show for `CCCNC(=O)C1(C)CCCN(C(=O)c2ccc(F)c(Cl)c2)C1` (centres undefined)?
FGF22 binding: inactive; rRNA inh HTS: 2; AF4-AF9 inh: -2.4; HNF4A DNA FP: -1.6; rRNA inh HTS OD600: 5; rRNA inh HTS RFP: 0.3

What do the screens show for `CCOP(=O)(OCC)C(Nc1cccc(C(F)(F)F)c1)c1ccc(F)cc1` (centres undefined)?
FGF22 binding: inactive; rRNA inh HTS: -15; AF4-AF9 inh: -1.5; HNF4A DNA FP: 0.9; ALR H2O2 inh: 0; E coli growth: 0.73; rRNA inh HTS OD600: -42; rRNA inh HTS RFP: 1.2

How did Cn1c(SCC(=O)NCc2ccco2)nnc1-c1ccc(S(=O)(=O)N2CCOCC2)cc1 do in these assays?
HNF4A DNA FP: -0.7; ALR H2O2 inh: 7; Vif A3G: inconclusive; E coli growth: 0.75

Results for Cc1cccc(S(=O)(=O)NC(Cc2c[nH]c3ccccc23)C(=O)O)c1 (centres undefined) ?
HNF4A DNA FP: 2.9; ALR H2O2 inh: -6; Vif A3G: -2%; E coli growth: 0.74

Results for O=C(CCN=C1NS(=O)(=O)c2ccccc21)OCC(=O)c1ccccc1Cl ?
FGF22 binding: inactive; rRNA inh HTS: -1; AF4-AF9 inh: -4.9; HNF4A DNA FP: 1.3; ALR H2O2 inh: -1; Vif A3G: 3%; E coli growth: 0.66; rRNA inh HTS OD600: -1; rRNA inh HTS RFP: -0.1

Results for Cc1ccc(OCC(=O)NNC(=O)CCc2ccccc2)cc1 ?
FGF22 binding: inactive; rRNA inh HTS: 15; AF4-AF9 inh: 1.9; HNF4A DNA FP: 2.5; ALR H2O2 inh: -2; Vif A3G: 70%; E coli growth: 0.68; rRNA inh HTS OD600: 16; rRNA inh HTS RFP: 0.5

Results for CC(=O)c1cccc(NC(=O)C(C)OC(=O)c2ccc(-n3cnnn3)cc2)c1 (centres undefined) ?
rRNA inh HTS: 3; AF4-AF9 inh: -0.6; HNF4A DNA FP: 1.4; Vif A3G: -11%; E coli growth: 0.7; rRNA inh HTS OD600: 2; rRNA inh HTS RFP: 3.0

A section taken from the entries so far:
How did COCCNC(=O)C1CCN(S(=O)(=O)N2CCC3(CC2)OCCO3)CC1 do in these assays?
HNF4A DNA FP: 0.8; ALR H2O2 inh: -4; Vif A3G: 1%; E coli growth: 0.67

What do the screens show for `O=C1c2ccc([N+](=O)[O-])cc2C(=O)N1c1c[nH]c(=O)[nH]c1=O`?
FGF22 binding: inactive; rRNA inh HTS: -2; AF4-AF9 inh: -7.4; HNF4A DNA FP: 5.4; ALR H2O2 inh: -21; Vif A3G: 3%; E coli growth: 0.69; rRNA inh HTS OD600: 3; rRNA inh HTS RFP: 0.3

Results for O=C1c2ccccc2CC1Sc1nnc(-c2ccccn2)o1 (centres undefined) ?
HNF4A DNA FP: -0.6; Vif A3G: 98µM*; E coli growth: 0.69

(list continues)
Results for O=C(COC(=O)c1cccc(S(=O)(=O)N2CCOCC2)c1)NCc1ccccc1 ?
FGF22 binding: inactive; rRNA inh HTS: -1; AF4-AF9 inh: -4.2; HNF4A DNA FP: -1.1; ALR H2O2 inh: 1; Vif A3G: -2%; E coli growth: 0.67; rRNA inh HTS OD600: -3; rRNA inh HTS RFP: 3.6

What do the screens show for `O=C(O)c1ccc(N/N=C/c2cccc(C(F)(F)F)c2)cc1`?
FGF22 binding: inactive; rRNA inh HTS: -16; AF4-AF9 inh: -0.7; HNF4A DNA FP: -1.6; ALR H2O2 inh: 14; Vif A3G: 4%; rRNA inh HTS OD600: -12; rRNA inh HTS RFP: 0.7

What do the screens show for `COc1cc2nc3n(c(=O)c2cc1OC)-c1ncccc1C(=O)NC3Cc1ccccc1` (centres undefined)?
FGF22 binding: inactive; rRNA inh HTS: 4; AF4-AF9 inh: 0.1; HNF4A DNA FP: -0.4; Vif A3G: 9%; rRNA inh HTS OD600: 12; rRNA inh HTS RFP: -1.7

What do the screens show for `CCCCCC(=O)NC(=S)Nc1ccc2oc(=O)ccc2c1`?
FGF22 binding: inactive; rRNA inh HTS: 0; AF4-AF9 inh: -2.4; HNF4A DNA FP: -0.9; ALR H2O2 inh: 8; E coli growth: 0.66; rRNA inh HTS OD600: 2; rRNA inh HTS RFP: -0.1

How did C[C@@H]1CN([C@H](C)CO)C(=O)CCCn2cc(nn2)CO[C@H]1CN(C)S(=O)(=O)c1ccc(Oc2ccccc2)cc1 do in these assays?
FGF22 binding: inactive; rRNA inh HTS: 4&0; AF4-AF9 inh: 0.2&-0.4; HNF4A DNA FP: -12; Vif A3G: -2%; rRNA inh HTS OD600: -9&-12; rRNA inh HTS RFP: -4.9&1.5

Results for Cc1c(C(=O)NCc2cccc([N+](=O)[O-])c2)sc(=O)n1Cc1ccccc1F ?
FGF22 binding: inactive; rRNA inh HTS: 6; AF4-AF9 inh: 0.7; HNF4A DNA FP: -0.6; rRNA inh HTS OD600: 18; rRNA inh HTS RFP: -0.3

What do the screens show for `C[C@@H]1CN([C@H](C)CO)S(=O)(=O)c2ccc(C#CCN(C)C)cc2O[C@@H]1CN(C)Cc1ccc(F)cc1`?
FGF22 binding: inactive; rRNA inh HTS: -2; AF4-AF9 inh: 14; rRNA inh HTS OD600: -1; rRNA inh HTS RFP: 1.2

How did ClCc1nnc(-c2ccccc2)o1 do in these assays?
FGF22 binding: inactive; rRNA inh HTS: -1; AF4-AF9 inh: 0.4; HNF4A DNA FP: 3.0; ALR H2O2 inh: inconclusive; Vif A3G: inconclusive; E coli growth: 0.68; rRNA inh HTS OD600: 5; rRNA inh HTS RFP: 1.2

Results for Cc1ccc(S(=O)(=O)Nc2ccc3c(c2)C(=O)N([C@H](C)CO)C[C@@H](C)[C@@H](CN(C)S(C)(=O)=O)OCCCC[C@@H](C)O3)cc1 ?
FGF22 binding: inactive; rRNA inh HTS: 0; AF4-AF9 inh: 0.9; rRNA inh HTS OD600: 7; rRNA inh HTS RFP: -0.7

Results for COc1ccccc1CNS(=O)(=O)c1c(C)nc2sccn2c1=O ?
FGF22 binding: inactive; rRNA inh HTS: -5; AF4-AF9 inh: -14; HNF4A DNA FP: -3.9; ALR H2O2 inh: -13; E coli growth: 0.71; rRNA inh HTS OD600: 17; rRNA inh HTS RFP: 2.6

Results for CCN(C[C@@H]1N[C@@H](CO)[C@@H]1c1ccc(C2=CCCC2)cc1)C(=O)c1ccncc1 ?
FGF22 binding: inactive; rRNA inh HTS: -2; AF4-AF9 inh: 8.2; rRNA inh HTS OD600: -5; rRNA inh HTS RFP: -0.3

Results for O=C(Oc1ccccc1C(=O)Nc1ccccc1)c1ccc(Br)c([N+](=O)[O-])c1 ?
FGF22 binding: inactive; rRNA inh HTS: -25; AF4-AF9 inh: -0.8; HNF4A DNA FP: -4.0; ALR H2O2 inh: 97*; Vif A3G: 26%; E coli growth: 0.66; rRNA inh HTS OD600: -26; rRNA inh HTS RFP: -6.1

Results for O=C(C[C@@H]1C/C=C\C[C@@H](Cc2ccc(F)cc2)C(=O)OCCNC1=O)N[C@H](CO)Cc1ccccc1 ?
FGF22 binding: inactive; rRNA inh HTS: 13; AF4-AF9 inh: 3.0; HNF4A DNA FP: 0.4; ALR H2O2 inh: -8; rRNA inh HTS OD600: 0; rRNA inh HTS RFP: 0.5

How did C[C@@H]1CCCCO[C@@H](CN(C)C(=O)Nc2cccc3ccccc23)[C@@H](C)CN([C@H](C)CO)C(=O)c2cc(NC(=O)c3ccncc3)ccc2O1 do in these assays?
FGF22 binding: inactive; rRNA inh HTS: 5; AF4-AF9 inh: 4.8; rRNA inh HTS OD600: 2; rRNA inh HTS RFP: 2.1

How did O=c1cc(CN2CCc3ccccc3C2)nc2sccn12 do in these assays?
HNF4A DNA FP: -3.1; ALR H2O2 inh: -6; Vif A3G: inconclusive; E coli growth: 0.69

How did COc1ccc2c3c([nH]c2c1)[C@@H](CO)N(C(=O)C1CC1)CC31CCN(C)CC1 do in these assays?
FGF22 binding: inactive; rRNA inh HTS: 2; AF4-AF9 inh: -1.4; rRNA inh HTS OD600: 9; rRNA inh HTS RFP: 0.3

What do the screens show for `C[C@@H]1CN([C@@H](C)CO)C(=O)c2cc(NC(=O)Nc3ccc(C(F)(F)F)cc3)ccc2O[C@H]1CN(C)S(=O)(=O)c1ccccc1`?
FGF22 binding: inactive; rRNA inh HTS: 3; AF4-AF9 inh: -2.1; rRNA inh HTS OD600: 17; rRNA inh HTS RFP: -1.7

How did O=C(CCNC(=O)c1ccc([N+](=O)[O-])cc1)Nc1ccc(F)cc1F do in these assays?
FGF22 binding: inactive; rRNA inh HTS: 4; AF4-AF9 inh: 0.9; HNF4A DNA FP: 5.2; ALR H2O2 inh: -19; Vif A3G: -3%; E coli growth: 0.69; rRNA inh HTS OD600: 5; rRNA inh HTS RFP: 0.4

Results for CCC(C)NC(=O)C1CCC(=O)N(c2ccc3c(c2)OCO3)C1c1ccc(OC)cc1 (centres undefined) ?
FGF22 binding: inactive; rRNA inh HTS: 7; AF4-AF9 inh: -0.3; HNF4A DNA FP: -1.1; ALR H2O2 inh: -16; Vif A3G: 0%; E coli growth: 0.71; rRNA inh HTS OD600: 6; rRNA inh HTS RFP: 0.3

Results for O=C(NN1CCCCC1)c1ccc(COc2ccc(Cl)cc2)cc1 ?
FGF22 binding: inactive; rRNA inh HTS: 0; AF4-AF9 inh: -2.4; HNF4A DNA FP: -2.5; Vif A3G: -11%; E coli growth: 0.66; rRNA inh HTS OD600: -3; rRNA inh HTS RFP: -1.0

Results for Cc1ccc(CNC(=O)N2CCN(c3ccc(C)cc3)CC2)cc1 ?
FGF22 binding: inactive; rRNA inh HTS: -2; AF4-AF9 inh: 4.8; HNF4A DNA FP: -1.0; ALR H2O2 inh: -1; E coli growth: 0.66; rRNA inh HTS OD600: 5; rRNA inh HTS RFP: 4.8

Results for CCn1nc(C)c(C(=O)Nc2cc(Oc3ccc(Cl)cc3)cc([N+](=O)[O-])c2)c1C ?
HNF4A DNA FP: 1.9; ALR H2O2 inh: -11; Vif A3G: 10%; E coli growth: 0.73
